MARV entry inh = inhibitors of Marburg virus binding or cell entry; Marburg virus pseudotyped entry inhibition, cell reporter; control for the full effect not named in the record; about a third of the inactives were read at about 46 µM; 300,000 compounds, 1.8% hits; Potency, µM (doses to about 37.8 µM), for inactives: top-dose activity change, negative = inhibition, most hits filed as inhibitors; AID 540276; active = well fitted inhibition curve with a large enough effect; inconclusive = small, poorly fitted or top-dose-only effect, or effect the other way; inactive = flat fitted curve, though single readings scatter; tested in HEK293 cells; about a fifth of its hits are not listed in these tables; also: % is scaled to controls: 0 for no effect and ±100 for the full control effect; luciferase read-out
StopGo reporter = FMDV 2A StopGo reporter, luciferase signal | human cells with a luciferase reporter of 2A StopGo recoding; control for the full effect not named in the record | Potency, µM (titrated, usually from 57.9 µM), without a hit: at the top dose signal change, negative = less light | 410,000 compounds, 1.2% hits | AID 1159524; active = well fitted falling curve with a large enough effect; inconclusive = small, poorly fitted or top-dose-only effect; inactive = no such curve, though single readings can be large or run the other way; tested in HEK293T cells; also: % is scaled to controls: 0 for no effect and ±100 for the full control effect; nearly all actives have a fitted effect of over 45% in size; luciferase light after 4 h
NS1 inh = influenza NS1 inhibition | 270,000 compounds, 0.4% hits | Potency, µM (titrated, usually from 46.1 µM), for the others: top-dose activity, positive = more growth | S. cerevisiae slowed by influenza A NS1, growth recovery by OD600; also: actives are rising curves; nearly all actives have a fitted effect of over 50% in size
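A cell-based growth assay was used: compounds that relieve NS1-induced slow growth of budding yeast raise OD600. Assay medium was yeast nitrogen base with ammonium sulphate and -URA supplement, pH 6.0, with 2% galactose.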
LASV entry inh = blocks Lassa virus binding to or entry into cells. Lassa virus pseudotype entry inhibition, cell reporter; control for the full effect not named in the record. Potency, µM (doses to about 37.9 µM), without a hit: top-dose activity change, negative = inhibition, most hits filed as inhibitors. 300,000 compounds, 1.2% hits; active means well fitted inhibition curve with a large enough effect; inconclusive means small, poorly fitted or top-dose-only effect, or effect the other way; inactive means flat fitted curve, though single readings scatter; tested in HEK293 cells; also: % is scaled to controls: 0 for no effect and ±100 for the full control effect; nearly all actives have a fitted effect of over 50% in size; luciferase read-out
Cruzain inh Det = inhibitors of Trypanosoma cruzi cruzain with detergent; P25779; purified cruzain, Z-FR-AMC fluorescence, 0.01% Triton; Potency, µM, without a hit: max response, negative = inhibition, actives largely listed as inhibitors; 200,000 compounds, 0.43% hits; active = well fitted curve in the direction sought with a large enough effect; inconclusive = small, poorly fitted or top-dose-only effect, or another doubt; inactive = no such curve, though single readings can be large; an effect the other way counts as inactive or inconclusive;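 also: plate controls were neutral wells for no effect and buffer without enzyme for full effect; nearly all actives have a fitted effect of over 40% in size; top concentration of the series not given in the record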
Target sequence (P25779 123-467 limits assumed): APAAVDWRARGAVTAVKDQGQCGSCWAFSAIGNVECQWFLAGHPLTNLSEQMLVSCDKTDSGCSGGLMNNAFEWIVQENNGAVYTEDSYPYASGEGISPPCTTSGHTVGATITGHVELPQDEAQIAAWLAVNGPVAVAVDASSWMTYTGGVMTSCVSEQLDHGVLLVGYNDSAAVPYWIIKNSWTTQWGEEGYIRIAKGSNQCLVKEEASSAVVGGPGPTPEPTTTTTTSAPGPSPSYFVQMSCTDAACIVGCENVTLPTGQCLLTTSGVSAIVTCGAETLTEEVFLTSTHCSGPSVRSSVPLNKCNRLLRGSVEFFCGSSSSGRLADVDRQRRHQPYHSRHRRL
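Steps: dispense cruzain (1.5 nM final) in acetate buffer pH 5.5 with DTT and 0.01% Triton X-100; pin-transfer compounds; incubate 15 min RT; add Z-FR-AMC (2 uM final); read fluorescence every 30 s, using the 60 s intensity change.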
SARS PLpro yeast = blocks SARS-CoV papain-like protease in a yeast assay; S. cerevisiae expressing SARS-CoV PLpro, growth rescue; control for the full effect not named in the record; Potency, µM (titrated, usually from 32.9 µM), for inactives: top-dose activity, positive = growth rescue; 330,000 compounds, 0.19% hits; AID 485353; also: 0% is about no effect; nearly all actives have a fitted effect of over 55% in size; growth read by luminescence after 48 h
RE007 growth inh = less growth of the S. pombe RE007 Vpr strain | Potency, µM (doses to about 92.2 µM), without a hit: at the top dose activity change, negative = less growth | 360,000 compounds, 0.21% hits | S. pombe RE007 Vpr strain, BacTiter-Glo ATP luminescence, 24 h; control for the full effect not named in the record; active = well fitted falling curve with a large enough effect; inconclusive = small, poorly fitted or top-dose-only effect; inactive = no such curve, though single readings can be large or run the other way;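 also: % is scaled to controls: 0 for no effect and ±100 for the full control effect; nearly all actives have a fitted effect of over 50% in size; the assay follows cell death caused by Vpr and the record does not say whether a fall means rescue or toxicity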
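Fission yeast strain RE007, carrying one chromosomally integrated HIV-1 vpr copy, was seeded at OD 0.01 in PMG+AL medium with 23 nL pinned compound. After 24 h at 30 °C and 99% humidity, viability was read by BacTiter-Glo luminescence.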
Cruzain noTriton = inhibitors of Trypanosoma cruzi cruzain without detergent; Potency, µM, for inactives: max response, negative = inhibition, hits mostly inhibitors; 200,000 compounds, 2.3% hits; AID 1476; purified cruzain, Z-FR-AMC fluorescence, no detergent; active = well fitted curve in the direction sought with a large enough effect; inconclusive = small, poorly fitted or top-dose-only effect, or another doubt; inactive = no such curve, though single readings can be large; an effect the other way counts as inactive or inconclusive;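 also: plate controls were enzyme without inhibitor for no effect and buffer without enzyme for full effect; nearly all actives have a fitted effect of over 40% in size; top concentration of the series not given in the record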
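Detergent-free condition (0.00005% Triton X-100) in acetate buffer pH 5.5 with DTT. 1.5 nM enzyme and compound were pre-mixed 15 min, then 2 uM Z-FR-AMC substrate added; reaction progress from fluorescence change between first and third reads (60 s).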
An asterisk follows results filed as active; u = inconclusive; x = not tested or not shown; & = joins results of further samples; [ ] = dose if it differs, or a comment. Unless noted, calls follow the shape of the dose curve; as a rule, active means well fitted rising curve with a large enough effect; inconclusive means small, poorly fitted or top-dose-only effect; inactive means no such curve, though single readings can be large or run the other way. Potency is read from the fitted curve at half-maximal effect.

SMILES	MARV entry inh	StopGo reporter	NS1 inh	LASV entry inh	Cruzain inh Det	SARS PLpro yeast	RE007 growth inh	Cruzain noTriton
COc1ccc(S(=O)(=O)N2CCC(Nc3ccccc3Cl)CC2)cc1	u	-8%	12%	-10%	x	1%	-12%	x
COc1ccc(-n2cnnc2SCc2cnc(-c3ccccc3)s2)cc1	3%	-11%	-13%	-10%	-2.1%	-2%	-3%	-1%
COc1ccccc1OCCC(=O)OCC(=O)Nc1ccc(S(=O)(=O)N2CCOCC2)cc1	u	-11%	x	9%	x	0%	-9%	x
CN1CCN(S(=O)(=O)c2ccc(NC(=S)NC(=O)C3CCC3)cc2)CC1	28%	5%	10%	19%	-0.9%	12%	-17%	0%
Cn1c(=O)[nH]c(=O)c2c1nc(N/N=C/c1cccnc1)n2Cc1ccc(Cl)cc1	9%[46.1 µM]	5%	-2%	-10%	x	2%	8%	x
CC(=O)c1cn(Cc2ccccc2)c(=O)n(Cc2ccc(F)cc2)c1=O	u	1%	x	1%	x	-5%	2%	x
CC(=O)Oc1ccc(C(=O)Cc2ccc3ccccc3n2)c(O)c1C	4%	27%	25%	13%	-5.4%	14%	-5%	-15%
NC(CCCCCP(=O)(O)O)C(=O)O (stereo not given)	u	x	u	u	6.3%	x	x	5%
CCOc1cccc(C=NCCc2ccc(OC)c(OC)c2)c1O	x	-13%	-3%	x	x	11%	-6%	x
CCOC(=O)N1CCC(NC(=O)c2ccc3nc4ccccc4c(=O)n3c2)CC1	3%	x	-9%	x	-4.7%	3%	x	-3%
COc1ccc(CC(=O)NCC(c2ccc(N(C)C)cc2)N2CCOCC2)cc1 (stereo not given)	x	-12%	x	u	-2.3%	x	x	-4%
Cc1ccc(S(=O)(=O)N(C)C)cc1NC(=O)c1cc(=O)[nH]c2ccccc12	x	-12%	3%	x	x	0%	5%	x
c1ccc(CNc2nc(-c3cccnc3)cs2)cc1	-15%[46.1 µM]	28%	-4%	-1%[46.1 µM]	x	-2%	1%	x
COc1ccc(CCC(=O)OCC(=O)Nc2ccccc2OC(F)F)cc1OC	-8%[46.1 µM]	-4%	-3%	8%	x	-1%	7%	x
O=P(O)(O)CN1CCNCCN(CP(=O)(O)O)CCNCC1	u	-1%	x	-16%	x	x	13%	x
COc1cccc(CN2C(=NC(=O)CCC3CCCC3)SC3CS(=O)(=O)CC32)c1 (stereo not given)	x	-22%	20%	x	x	6%	-3%	x
Cc1cc2nc(/C(C#N)=C/c3ccncc3)[nH]c2cc1C	x	-6%	6%	x	x	-1%	-6%	x
COCCN(C(=O)CNC(=O)c1ccco1)C(C(=O)NC1CCCCC1)c1cccnc1 (stereo not given)	-2%[46.1 µM]	-10%	10%	2%	x	3%	-9%	x
S=C1NCCNC(=S)NCCOCCN1	0%[46.1 µM]	-13%	x	-4%[46.1 µM]	x	3%	-1%	x
CCC1CCCCN1C(=O)N[C@@H](Cc1ccccc1)C(=O)O (stereo not given in full)	24%	-15%	u	17%	4.7%	5%	3%	-2%
CCOc1ccc(NC(=O)CN2CCN(CC(=O)Nc3ccc(F)cc3)CC2)cc1	u	-20%	-6%	0%	1.6%	2%	4%	-3%
C/C(N)=C(/C#N)C(=O)COC(=O)CCSc1ccccc1Cl	29%	8%	-42%	0%	-25%	21%	1%	-2%
CC1(NC(=O)CCc2nc3sc4c(c3c(=O)[nH]2)CCCC4)CCS(=O)(=O)C1 (stereo not given)	-3%[46.1 µM]	3%	x	-9%	x	-1%	-6%	x
CCCS(=O)(=O)Nc1ccc(N2CCCCC2)c(S(=O)(=O)Nc2ccccc2OC)c1	u	44%[activator]	x	-13%	x	-2%	-20%	x
NNC(=O)c1cccc(S(=O)(=O)Nc2cc(Cl)ccc2Cl)c1	-9%[46.1 µM]	12%	10%	1%	x	0%	3%	x
CC(NC(=O)c1ccc(OC2CCN(Cc3ccccn3)CC2)cc1)c1ccccc1 (stereo not given)	-5%[46.1 µM]	-7%	-1%	19%	x	0%	-4%	x
COCCCNc1nc2ccccc2nc1NS(=O)(=O)c1ccc(Cl)cc1	x	-7%	-7%	x	x	3%	5%	x
CCCCn1c(N)c(N(CC)C(=O)c2ccccc2C)c(=O)[nH]c1=O	-2%[46.1 µM]	-9%	18%	21%[46.1 µM]	x	5%	6%	x
COc1ccc(CCNCC(O)COc2cccc(Br)c2)cc1OC (stereo not given)	u	-13%	-8%	-10%	x	-1%	-14%	x
Cc1cc(-c2nnc(CCC(=O)N3CCN(Cc4cccc(F)c4)CC3)o2)c(C)o1	20%[46.1 µM]	8%	-2%	u	x	1%	-14%	x
CCOC(=O)c1ccc(Oc2cc(C)nc(Cl)n2)cc1	7%[14.2 µM]	3%	0%	12%	x	-1%	16%	x
O=[N+]([O-])c1cc(-c2cnc3ccccc3n2)ccc1Cl	u	44%[activator]	-3%	x	x	-1%	8%	x
Cn1nnnc1SCCCNCc1cc(Br)ccc1OCc1ccccc1	u	u	x	10%[46.1 µM]	-3.8%	x	x	-7%
COc1ccc(N(CC(=O)NCCc2ccccc2)C(=O)CCC(=O)Nc2ccccn2)cc1	-14%	24%	-20%	u	x	0%	-6%	x
COC(=O)c1ccccc1NC(=O)CSc1nccc(C)n1	14%[46.1 µM]	1%	-7%	10%[46.1 µM]	x	-1%	12%	x
CC(=O)c1c(C)[nH]c(C(=O)COc2cc(C)ccc2C(C)C)c1C	u	-14%	1%	u	-4.2%	-3%	-2%	-11%
Cc1ccc(S(=O)(=O)NCCCCC(NC(=O)OC(C)(C)C)C(=O)O)cc1 (stereo not given) (tested in a mixture with another compound)	-4%&-4%	-17%	-1%	-2%	-0.3%	2%	3%	u
O=C(COc1nnnc2ccccc12)N1CCCc2ccccc21	6%	12%	-4%	16%	1.7%	-2%	20%	6%
COc1cc(NC(=O)c2cccc(F)c2)cc(OC)c1OC	x	3%	-3%	x	x	-1%	-9%	x
CC(CNC(=O)c1ccc2c(c1)OCO2)c1ccc([N+](=O)[O-])cc1 (stereo not given)	-28%[46.1 µM]	-14%	-1%	-26%[46.1 µM]	x	-1%	14%	x
CCOC(=O)N1N=C(C)CC1(O)c1ccccc1 (stereo not given)	4%	-25%	1%	2%	-0.4%	13%	-3%	7%
CCn1c(=O)n(CC)c2cc(S(=O)(=O)NCCOc3ccccc3)c(C)cc21	u	-8%	-5%	3%	4.5%	2%	4%	-9%
COc1ccccc1NS(=O)(=O)c1cccc(C(=O)NCC(c2ccc(F)cc2)N2CCOCC2)c1 (stereo not given)	u	5%	x	5%	x	-4%	6%	x
CCOC(=O)N1CCN(CCC(=O)Nc2ccc(OC)cc2)CC1	7%	-16%	-3%	-7%	0.9%	4%	-8%	-3%
O=C1C2C3CCC(O3)C2C(=O)N1c1cc(OCC(F)F)cc([N+](=O)[O-])c1 (stereo not given)	3%	-16%	x	1%	x	-1%	7%	x
O=c1c2oc3ccccc3c2n(Cc2ccccc2)c(=O)n1Cc1ccc2c(c1)OCO2	x	-16%	x	-7%[46.1 µM]	-0.8%	x	x	3%
Cc1ccc(N2C(=O)C(CC(=O)Nc3cccc(F)c3)N(CCc3ccncc3)C2=O)cc1 (stereo not given)	x	1%	1%	x	x	0%	-10%	x
COc1cc(C(=O)NCC(=O)N/N=C/c2c(C)[nH]c3ccccc23)cc(OC)c1OC	x	-30%	-8%	x	x	1%	-12%	x
CCOC(=O)C1=C(CC)Nc2ccccc2N=C1NC(=O)CCN1C(=O)C2CCCCC2C1=O (stereo not given)	-4%[46.1 µM]	-9%	x	3%	x	2%	-6%	x
Cc1ccc([N+](=O)[O-])cc1S(=O)(=O)N1CCCC1	27%	-20%	-1%	-1%	-0.6%	9%	0%	10%
Cc1cc(N2C(=O)CC(Cc3ccc(Cl)cc3)C2=O)no1 (stereo not given)	19%	2%	-9%	-8%	6.0%	5%	-9%	-12%
NC(=O)c1ccc(/C=N/O)nc1	x	5%	3%	x	x	6%	-2%	x
Cc1ccc(/C=C(\CCC(=O)O)c2nc3ccccc3s2)cc1[N+](=O)[O-]	2%	9%	-11%	10%	-23%	-27%	u	u
O=C(C(=O)N1CCN(c2ccccc2)CC1)c1cn(CC(=O)N2CCCCCC2)c2ccccc12	u	-1%	u	u	x	u	2%	x
O=C(NCCCn1ccnc1)/C(=C\c1ccco1)NC(=O)c1ccco1	17%	-10%	x	2%	x	-4%	24%	x
C=CCn1cc(C(=O)c2cc(Br)ccc2O)cc(C#N)c1=O	-5%[46.1 µM]	u	-9%	12%	x	-1%	-1%	x
COc1ccc(C2(O)CCN(C(=O)c3c(F)cccc3F)CC2)cc1	1%	x	-3%	17%	2.3%	1%	5%	6%
COc1ccc(NC(=O)c2ccc(C)cc2)cc1	x	21%	-30%	x	x	-1%	2%	x
Cc1ccc(S(=O)(=O)Nc2cc3c(cc2N2CCOCC2)n(C)c(=O)c(=O)n3C)cc1	x	-6%	2%	x	x	u	-10%	x
CCOc1ccc(-c2oc3ccc(C)cc3c(=O)c2O)cc1	19%[46.1 µM]	28%	x	-5%[46.1 µM]	-2.1%	x	x	-4%
CC(=O)N1CCN(C2=NC(=O)/C(=C\c3cccs3)S2)CC1	3%[46.1 µM]	5%	5%	1%	x	0%	9%	x
CCOC(=O)C1=C(CSc2nc(-c3ccccc3)ccc2C#N)OC(N)=C(C#N)C1c1cccnc1 (stereo not given)	1%&1%[46.1 µM]	12%	10µM*	9%	-5.2%	1%	2%	u
CCOC(=O)c1ccc(NC(=O)c2nc[nH]c2C(=O)N[C@@H](CC(C)C)C(=O)OC(C)(C)C)cc1	x	-18%	10%	x	x	1%	1%	x

Assay outcomes (PubChem)
